Mtb betalactam = beta-lactam sensitization of Mtb H37Rv, H37Rv; AID 434955, 2010; M. tuberculosis H37Rv growth with meropenem, percent inhibition; hits of this screen are not shown here; inhibition, % at 25 µM; 330,000 compounds, 0.27% hits;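 active means about 74% or more and at least 40 points above the plate without the antibiotic, then above 30% in a dose series; inconclusive means first-round hits that could not be retested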;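 further: growth measured after seven days incubation then overnight dye step; 0% = bacteria only wells and 100% = bacteria with antibiotic; twin plates without the antibiotic show which effects depend on it; some results filed as inactive read as strong as hits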
Numbers without * were called inactive; ? = inconclusive. An excerpt; count on the stated rates, not on these rows.

The opening six compounds (preview)
SMILES	Mtb betalactam
O=C(NC(=S)NC12CC3CC(CC(C3)C1)C2)c1ccc(F)cc1	6
c1ccc(C2CC2)c(OCC2=NCCN2)c1	1
Cc1ccc(C(=O)C2=C(O)C(=O)N(Cc3cccnc3)C2c2ccc(Br)cc2)o1 (stereo not drawn)	?
CCC(=O)Nc1nc(C)c(C(=O)Nc2cccc(Cl)c2)s1	-3
Cc1cc(=O)[nH]c(SCC(=O)Nc2ccc(N3CCCCC3)cc2)n1	0
Cc1ccc(NC(=O)Cn2c(=O)oc3ccccc32)cc1C	-3

This part in full, from the first entry:
SMILES	Mtb betalactam
O=C(NC(=S)NC12CC3CC(CC(C3)C1)C2)c1ccc(F)cc1	6
c1ccc(C2CC2)c(OCC2=NCCN2)c1	1
Cc1ccc(C(=O)C2=C(O)C(=O)N(Cc3cccnc3)C2c2ccc(Br)cc2)o1 (stereo not drawn)	?
CCC(=O)Nc1nc(C)c(C(=O)Nc2cccc(Cl)c2)s1	-3
Cc1cc(=O)[nH]c(SCC(=O)Nc2ccc(N3CCCCC3)cc2)n1	0
Cc1ccc(NC(=O)Cn2c(=O)oc3ccccc32)cc1C	-3
N#CCc1ccccc1C(=O)OCC(=O)N(Cc1ccccc1)Cc1ccccc1	10
COc1ccc(CN2C(=O)C(C)Nc3ncnc(N4CCN(c5ccccn5)CC4)c32)cc1 (stereo not drawn)	1
CC(C)(C)OC(=O)C[C@@H]1C/C=C\C[C@@H](CC(=O)N(CCO)Cc2ccccc2)C(=O)N[C@H](C(C)(C)C)COC1=O	3
CN1CCN(C(=O)c2ccccc2NS(=O)(=O)c2ccc(F)cc2)CC1	-3
CC(=O)O[C@H]1C[C@@H]2CC[C@@H]3[C@H](CC[C@@]4(C)[C@H]3C[C@H]([N+]3(C)CCCCC3)[C@@H]4OC(C)=O)[C@@]2(C)C[C@@H]1[N+]1(C)CCCCC1	-1
O=C(CSc1n[nH]c(=O)[nH]c1=O)Nc1ccc(SC(F)F)cc1	-3
O=C(c1cnn(C(=O)c2ccco2)c1)c1cc(Cl)cc(Cl)c1O	-3
O=C(CSc1nnc(NC(=O)C2CC2)s1)Nc1ccccc1C(F)(F)F	5
COC(=O)C1=C(c2ccccc2OCc2ccccc2)C[C@@H]2CC[C@H]1N2C(=O)NCc1ccccc1	-4
O=C(COC(=O)c1cc(S(=O)(=O)Nc2ccccc2Cl)ccc1O)Nc1ccc(F)c(F)c1F	-1
c1ccc(CNc2c(-c3cccc(SC4CCCCC4)c3)nc3ccccn23)cc1	8
COCCN(Cc1nc2ccccc2c(=O)[nH]1)C(=O)c1cccc(S(=O)(=O)N2CCCC2)c1	2
COc1ccc(Cl)cc1S(=O)(=O)N1CCN(C(=O)c2n[nH]c(=O)c3ccccc23)CC1	3
O=C1CN=C(c2ccccc2)c2cc(Cl)ccc2N1	5
Cc1c(C)c2ccc(OCC(=O)NCCc3c[nH]c4ccccc34)c(C)c2oc1=O	3
OCC[C@H]1C[C@H](O)[C@@H](O)[C@@]2(Cc3ccccc3O2)O1	-13
NC(=O)c1ccccc1[N+](=O)[O-]	-2
Cc1ccc(S(=O)(=O)N2CCC[C@H]2C(=O)OCC(=O)Nc2ccc3c(c2)OCO3)cc1	-1
CCOC(=O)C1=C(CC)Nc2ccccc2N/C1=N\S(=O)(=O)c1ccccc1F	-9
Further compounds follow.
SMILES	Mtb betalactam
COc1ccc(Br)cc1/C=C(\C(=O)O)c1ccc(S(=O)(=O)N2CCCC2)s1	-5
Cc1cc(C(=O)CN2CCN(CC(=O)Nc3ccc(F)cc3)CC2)c(C)n1C1CC1	-4
COc1cccc(C(=O)OCC(=O)Nc2ccc3c(c2)OCCO3)c1	3
CC(C)(C)OC(=O)C[C@H]1C/C=C\C[C@@H](CC(=O)N(CCO)Cc2ccccc2)C(=O)NC[C@H](c2ccccc2)OC1=O	-5
O=C(CN1C(=O)NC2(CCCCCC2)C1=O)NCc1ccc(F)cc1	-6
CC(C(=O)N1CCCCC1)N(C)CC(=O)Nc1cccc(F)c1 (stereo not drawn)	-10
CN(C)C(=O)CSc1ccc(S(=O)(=O)N2CCOCC2)cn1	4
C[C@]12CC[C@H](O)CC1=CCC1C2CC[C@@]2(C)C1CC[C@@H]2NC(=O)[C@@H](N)Cc1ccccc1 (stereo partly drawn)	7
CCOC(=O)[C@H]1[C@H]2COc3ccc(Br)cc3[C@@H]2N2C(=O)c3ccc(F)cc3NC(=O)[C@@]12C	48
CC(=O)c1ccc(S(=O)(=O)N2CCn3cccc3C2C)cc1 (stereo not drawn)	-2
O=C1C=C(c2ccc3c(c2)OCCO3)C[C@@H](c2ccc(F)cc2)C1	13
O=C(CCN1C(=O)C2CC=CCC2C1=O)OCC(=O)c1ccc(F)cc1 (stereo not drawn)	1
O=C(c1ccc2c(c1)OCCO2)N1CCN(S(=O)(=O)c2c(F)cccc2F)CC1	-2
Cc1cc(C)n2nc(C(=O)OCC(=O)c3ccccc3Cl)nc2n1	-7
CN(C(=O)CN1C(=O)NC2(CCc3ccccc32)C1=O)C1CCCCC1 (stereo not drawn)	-5
CCN1CCN(c2ccc(Nc3ccnc4ccccc34)cc2)CC1	5
CCC[C@@H](CN1CCC[C@H]1CN1C(N)=NC[C@H]1CC(C)C)N1C[C@@H](Cc2ccccc2)N(CCCC2CCCC2)C1=N	100
O=C(CCc1ccc(S(=O)(=O)N2CCOCC2)cc1)OCC(=O)c1ccccc1F	52
Cc1ccc(S(=O)(=O)N2CCOCC2)cc1C(=O)OC(C)C(=O)NC1CCCC1 (stereo not drawn)	1
O=C(CNC(=O)c1cc(Cl)cc([N+](=O)[O-])c1)OCC(=O)N1CCCCC1	3
COc1ccc(S(=O)(=O)N2CCCCC2)cc1NC(=O)C1CCCC1	-1
CCc1ccccc1NC(=O)CN1CCN(C(=O)CNC(=O)c2ccccc2F)CC1	-1
CCN1C(=O)[C@@H]2[C@@H](c3ccc(-c4ccc(Cl)c(Cl)c4)cc3)N3CCC[C@@]3(C(=O)OC)[C@@H]2C1=O	2
Cc1nc(-c2cccc(NC(=O)c3cccc(S(=O)(=O)N4CCCC4)c3)c2)cs1	-1
CCc1ccc(NC(=O)C(C)OC(=O)/C=C/c2ccc(O)c(OC)c2)cc1 (stereo not drawn)	-8
Continuation:
SMILES	Mtb betalactam
COc1ccc(NS(=O)(=O)c2cccc(C(=O)O)c2)cc1S(=O)(=O)N1CCCCC1	-2
COC(=O)[C@H]1[C@H]2C[C@@H]3c4[nH]c5cc(OC)ccc5c4CCN3C[C@H]2C[C@@H](OC(=O)/C=C/c2cc(OC)c(OC)c(OC)c2)[C@@H]1OC	66
O=C(C[C@@H]1C/C=C\C[C@@H](Cc2ccc(F)cc2)C(=O)OC[C@@H](Cc2c[nH]c3ccccc23)NC1=O)NCCO	0
CSCC[C@H](NC(=O)c1cccc(S(=O)(=O)N2CCCCC2)c1)c1nc2ccccc2[nH]1	-7
CCOC(=O)[C@H]1[C@H]2COc3ccc(C)cc3[C@@H]2N2C(=O)c3ccc(Cl)cc3NC(=O)[C@@]12C	-6
O=C(COc1ccc(F)cc1Cl)NC1CCCCCC1	-1
CC(C)(C)OC(=O)C[C@@H]1C/C=C\C[C@@H](CC(=O)N(CCO)Cc2ccccc2)C(=O)N[C@@H](c2ccccc2)COC1=O	-3
O=S(=O)(c1ccc(NCCOc2ccccc2)nc1)N1CCCC1	-1
C[C@H](CO)N1C[C@H](C)[C@@H](CN(C)S(=O)(=O)c2cccs2)Oc2ccc(NC(=O)c3ccncc3)cc2C1=O	7
COC(=O)C1CCN(C(=O)c2ccc(OC)c(S(=O)(=O)N3CCCc4ccccc43)c2)CC1	-2
Cc1ccsc1C(=O)OCC(=O)N1CC(C)CC(C)C1 (stereo not drawn)	-4
C=CCC[C@@H](Cc1ccc(F)cc1)C(=O)OCCNC(=O)[C@H](CC=C)CC(=O)NCCO	-1
C[C@]12CC[C@H](O)CC1=CC(=O)C1C2CC[C@]2(C)C(=O)[C@H](O)CC12 (stereo partly drawn)	-10
O=C(NCCc1ccc(F)cc1)c1ccc(Cl)c(S(=O)(=O)N2CCOCC2)c1	7
COc1cc(CC(=O)OCC(=O)Nc2ccccc2C#N)cc(OC)c1OC	-1
O=C(NC(=S)N1CCN(c2ccccc2)CC1)c1ccco1	73
CC(Sc1nnnn1C)C(=O)Nc1nc(-c2ccc(F)c(F)c2)cs1 (stereo not drawn)	68
COc1ccc(C(=O)OCC(=O)NCc2cccs2)c(OC)c1OC	-9
CCc1noc(C)c1C(=O)OCC(=O)c1ccc(OC)c(OC)c1	11
CCOC(=O)[C@H]1[C@H]2COc3ccc(Br)cc3[C@@H]2N2C(=O)CN(CC3CCCO3)C(=O)[C@@]12C (stereo partly drawn)	-8
CC(=O)Nc1ccc(S(=O)(=O)NCCC(=O)OC(C)C(=O)NC2(C#N)CCCCC2)cc1 (stereo not drawn)	0
Cc1cnc(C(=O)OC(C)C(=O)NCc2ccccc2)cn1 (stereo not drawn)	5
CC1CCCCC12NC(=O)N(CC(=O)Nc1nccs1)C2=O (stereo not drawn)	2
COc1ccc(Cl)cc1NC(=O)Cn1c(C)csc1=O	3
CCNC(=O)C(C)NC(=O)C1=NN(c2ccccc2)C(=O)CC1 (stereo not drawn)	-2
Next section:
SMILES	Mtb betalactam
Nc1cc(Cl)cc(Cl)c1	-8
C/C=C/C1=CC(=O)C[C@H](c2ccc(F)cc2)C1	0
CN(Cc1ccccc1)C(=O)c1nc[nH]c1C(=O)N(C)Cc1ccccc1	-8
CC(C)(C)OC(=O)N1CCC(C(=O)Nc2ccc(C(=O)N3CCOCC3)cc2)CC1	6
O=C(CN1c2cccc3cccc(c23)S1(=O)=O)NCc1ccc(Cl)cc1	-10
Cc1ccc(NC(=O)COc2cccc3ccccc23)c(O)c1	5
O=C1[C@H]2[C@@H](C3CC3)N3C(=O)CN(CC4CC4)C(=O)[C@@]3(Cc3ccccc3)[C@H]2C(=O)N1c1ccccc1	-7
CN(C)c1ccc(NC(=O)CN2CCc3ccccc3C2)cc1	-9
Cc1ccc(C2(C)NC(=O)N(CC(=O)NNC(=O)c3ccccc3F)C2=O)cc1 (stereo not drawn)	-3
O=C(CNC(=O)c1ccc(Cl)cc1)NNc1c(F)c(F)cc(F)c1F	-2
Cc1onc(-c2ccccc2)c1C(=O)NC1CCC(C)CC1 (stereo not drawn)	5
O=S(=O)(c1ccc(=S)[nH]c1)N1CCOCC1	-2
CSc1ccccc1NC(=O)CN(C)C(=O)Cc1c[nH]c2ccccc12	1
CN(Cc1ccccc1)C(=O)c1[nH]cnc1C(=O)Nc1ccon1	4
Cc1noc(C)c1NC(=O)Nc1ccc2c(c1)C(=O)N([C@H](C)CO)C[C@H](C)[C@@H](CN(C)S(=O)(=O)c1cn(C)cn1)O2	-3
Cc1ccc(NC(=O)c2cccnc2)cc1C	5
CN(C(=O)c1cccc(NC(=O)Cc2cccc([N+](=O)[O-])c2)c1)C1CCCCC1	0
O=C(COC(=O)C(Cc1ccccc1)NC(=O)c1cccs1)NCc1ccccc1 (stereo not drawn)	3
COc1cccc(-c2sc3ccc(OC)cc3c2-c2ccc(C(N)=O)cc2)c1	2
CCCN(CC(=O)Nc1ccccc1C)C(=O)CCCc1c[nH]c2ccccc12	1
CN(C(=O)c1cccc(NC(=O)Cc2cccc([N+](=O)[O-])c2)c1)C1CCCC1	8
O=C(OCc1ccc([N+](=O)[O-])cc1)C1CC(=O)N(Cc2ccccc2)C1 (stereo not drawn)	4
C[C@H](CO)N1C[C@H](C)[C@@H](CN(C)C(=O)Nc2ccccc2)Oc2c(NS(=O)(=O)c3cccs3)cccc2C1=O	7
CCOC(=O)c1c(C)[nH]c(C(C)=NNC(=O)Cn2nc(C)cc2C)c1C	4
CC1(C)CCc2cc(S(=O)(=O)N3CCN(S(=O)(=O)c4c(F)cccc4F)CC3)ccc2O1	1

Exported in markdown: part of the list above.
| SMILES | Mtb betalactam |
| --- | --- |
| O=C(CNC(=O)c1ccc(Cl)cc1)NNc1c(F)c(F)cc(F)c1F | -2 |
| Cc1onc(-c2ccccc2)c1C(=O)NC1CCC(C)CC1 (stereo not drawn) | 5 |
| O=S(=O)(c1ccc(=S)[nH]c1)N1CCOCC1 | -2 |
| CSc1ccccc1NC(=O)CN(C)C(=O)Cc1c[nH]c2ccccc12 | 1 |
| CN(Cc1ccccc1)C(=O)c1[nH]cnc1C(=O)Nc1ccon1 | 4 |
| Cc1noc(C)c1NC(=O)Nc1ccc2c(c1)C(=O)N([C@H](C)CO)C[C@H](C)[C@@H](CN(C)S(=O)(=O)c1cn(C)cn1)O2 | -3 |

Other results.
SMILES	Mtb betalactam
CCOC(=O)C1=CC[C@@H](c2ccccc2Cl)N(S(=O)(=O)c2ccc(C)cc2)[C@H]1C(=O)OCC	0
CCC1CCCCN1C(=O)CSC1=NN2CCCC(=O)N=C2S1 (stereo not drawn)	-5
Cc1cc(C)n2nc(SCC(=O)N3CCN(c4ccccc4)CC3)nc2n1	-13
CC1CCN(C2(O)C(=O)Nc3ccc(Cl)cc32)CC1 (stereo not drawn)	-1
N#Cc1ccccc1S(=O)(=O)N1CCN(C(=O)C2CC(=O)N(c3ccc4c(c3)OCCO4)C2)CC1 (stereo not drawn)	-11
N#CCC(=O)Nc1ccc(C(=O)OCC(=O)NC(=O)Nc2ccc3c(c2)OCCO3)cc1	-5
Cc1ccc(OCC(=O)N2C(C)CCCC2C)c([N+](=O)[O-])n1 (stereo not drawn)	-4
C[C@H](NC(=O)c1ncn(C)c1C(=O)N[C@@H](C)c1ccccc1)c1ccccc1	-9
CC(C)C(NC(=O)c1ccc(F)cc1)C(=O)NC1(C)CCS(=O)(=O)C1 (stereo not drawn)	2
Cc1ccc(C)c(-c2csc(-c3cccnc3)n2)c1	11
Cc1cc(C(=O)OCC(=O)N2CCCCCC2)ccc1[N+](=O)[O-]	34
O=C(NCCc1ccc(F)cc1)c1ccc2nccnc2c1	-2
O=C(COC(=O)c1c(Cl)ccc(Cl)c1Cl)NCC1CCCO1 (stereo not drawn)	1

Quoted at random: 2 compounds from above
SMILES	Mtb betalactam
Cc1onc(-c2ccccc2)c1C(=O)NC1CCC(C)CC1 (stereo not drawn)	5
CC(C)(C)OC(=O)C[C@H]1C/C=C\C[C@@H](CC(=O)N(CCO)Cc2ccccc2)C(=O)NC[C@H](c2ccccc2)OC1=O	-5

High-throughput results deposited in PubChem BioAssay by Southern Research Specialized Biocontainment Screening Center.
